LmPK inh – blocks Leishmania mexicana pyruvate kinase activity | Q27686 | purified LmPK, Kinase-Glo ATP luminescence, 1 h | Potency, µM (top dose mostly 57.5 µM), for inactives: top-dose activity change, negative = inhibition, actives largely listed as inhibitors | 0.37% of 290,000 active | AID 1721; note: potency is the fitted concentration of half-maximal effect
Target sequence (Q27686 whole entry, looked up): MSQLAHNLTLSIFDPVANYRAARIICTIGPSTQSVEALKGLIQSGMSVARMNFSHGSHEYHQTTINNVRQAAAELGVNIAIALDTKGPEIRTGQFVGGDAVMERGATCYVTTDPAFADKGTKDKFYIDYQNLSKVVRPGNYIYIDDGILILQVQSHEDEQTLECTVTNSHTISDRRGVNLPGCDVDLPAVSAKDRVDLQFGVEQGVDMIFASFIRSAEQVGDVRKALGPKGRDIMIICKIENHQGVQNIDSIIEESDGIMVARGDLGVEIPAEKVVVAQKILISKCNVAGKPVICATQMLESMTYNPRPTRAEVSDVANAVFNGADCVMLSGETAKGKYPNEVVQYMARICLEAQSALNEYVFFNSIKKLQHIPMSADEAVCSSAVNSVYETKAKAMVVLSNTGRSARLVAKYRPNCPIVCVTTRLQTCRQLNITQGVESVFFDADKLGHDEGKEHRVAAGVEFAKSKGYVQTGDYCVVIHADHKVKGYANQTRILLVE
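Pyruvate kinase activity monitored as ATP production (luciferase luminescence). Conditions: 0.1 nM enzyme, 0.5 mM PEP, 0.1 mM ADP, 1 h, RT; normalized against uninhibited and no-enzyme wells.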
AmpC detergent – AmpC beta-lactamase inhibition with detergent present. AmpC hydrolysis of nitrocefin, absorbance 480 nm, 0.01% Triton. Potency, µM (titrated, usually from 114 µM), without a hit: top-dose activity change, negative = inhibition, hits mostly inhibitors. 0.041% of 370,000 active. AID 485294;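 note: potency is the fitted concentration of half-maximal effect; 0% = no-compound wells and -100% = no-enzyme wells; nearly all actives have a fitted effect of over 25% in size; some results filed as inactive show a strong effect at the top dose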
Target sequence (P00811 whole entry, looked up): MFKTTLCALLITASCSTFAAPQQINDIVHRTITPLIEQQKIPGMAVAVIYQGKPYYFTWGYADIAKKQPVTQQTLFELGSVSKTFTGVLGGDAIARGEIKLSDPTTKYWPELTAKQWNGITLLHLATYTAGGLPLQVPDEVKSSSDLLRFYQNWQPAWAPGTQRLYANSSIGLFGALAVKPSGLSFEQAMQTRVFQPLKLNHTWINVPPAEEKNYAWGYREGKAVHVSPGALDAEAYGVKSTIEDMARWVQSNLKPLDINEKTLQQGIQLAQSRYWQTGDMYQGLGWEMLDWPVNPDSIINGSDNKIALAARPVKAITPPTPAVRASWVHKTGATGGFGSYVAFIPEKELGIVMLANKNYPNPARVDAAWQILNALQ
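20 mM phosphate pH 7.0 + 0.01% (detergent screen) or 0.0001% Triton X-100; 5.3 nM AmpC reagent; cpd preinc 15 min RT; nitrocefin (800 uM stock) to start; A480 q20 s × 4 min; Activity was normalised to no-enzyme and no-compound control wells.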
AmpC inh no detg – inhibitors of E. coli AmpC beta-lactamase without detergent | 0.52% of 330,000 active | P00811 | AmpC nitrocefin hydrolysis, absorbance 480 nm, 0.0001% Triton | Potency, µM (top dose mostly 57.1 µM), inactives show top-dose activity change, negative = inhibition, hits mostly inhibitors;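 note: potency is the fitted concentration of half-maximal effect; plate controls were no compound for no effect and no enzyme for full effect; nearly all actives have a fitted effect of over 20% in size; some results filed as inactive show a strong effect at the top dose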
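20 mM phosphate pH 7.0 + 0.01% (detergent screen) or 0.0001% Triton X-100; 5.3 nM AmpC reagent; cpd preinc 15 min RT; nitrocefin (800 uM stock) to start; A480 q20 s × 4 min; Activity was normalised to no-enzyme and no-compound control wells.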
HCMV antiviral – inhibitors of human cytomegalovirus. HFF cells, HCMV-luciferase reporter, 72 h; hits give low values. activity change, negative = inhibition, % at 57.5 µM. 4.5% of 410,000 active. AID 1259415; in the data active = activity change below about -60%; inconclusive = no clear call, values can overlap the other calls; inactive = above about -39%
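HFF cells seeded 16 h at 37C, treated with compounds, infected with luciferase-reporter HCMV at MOI 1 PFU/cell; luciferase read at 72 h post infection, normalized to buffer-only and Salinomycin controls.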
TbPYK inhibitor – blocks Trypanosoma brucei pyruvate kinase | AID 624173 | Potency, µM (highest dose often 76.8 µM), without a hit: at the highest dose activity, negative = inhibition, most hits filed as inhibitors | 0.12% of 410,000 active | TbPYK enzyme, Kinase-Glo Plus ATP luminescence, 45 min | Q57TT1; note: potency is the fitted concentration of half-maximal effect; nearly all actives have a fitted effect of over 50% in size
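TbPYK + substrate in 50 mM TEA pH 7.2, 100 mM KCl, 10 mM MgCl2, 0.05% BSA, 0.01% Tween-20; cpd pinned; ADP 130 uM final; 45 min RT; Kinase-Glo Plus 10 min; luminescence endpoint.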
AMA1-RON2 inh – AMA1-RON2 (P. falciparum) interaction inhibition; AlphaScreen AMA1-biotinylated RON2 peptide binding; AID 720542; Potency, µM (highest dose often 58.2 µM), without a hit: at the top dose activity change, negative = inhibition, hits mostly inhibitors; 0.2% of 360,000 active;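 note: potency is the fitted concentration of half-maximal effect; 0% = vehicle wells and -100% = peptide control; nearly all actives have a fitted effect of over 45% in size; some results filed as inactive show a strong effect at the top dose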
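AMA1 (3D7) with his tag at 25 nM final met compounds first, then biotinylated RON2 peptide at 25 nM; detection used donor plus acceptor beads, 10 µg/mL apiece, read by AlphaScreen after 30 min at room temperature.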
Active calls of the source: *; ? = inconclusive; nt = no result given; & = joins results of further samples; [ ] = another dose, or the depositor's remark. Unless noted, calls come from the whole dose curve; as a rule, active = well fitted curve in the direction sought with a large enough effect; inconclusive = small, poorly fitted or top-dose-only effect, or another doubt; inactive = no such curve, though single readings can be large; an effect the other way counts as inactive or inconclusive. Unless noted, % is set by controls: 0 for no effect and ±100 for the full control effect. Not all compounds are listed; the hit share may differ from the screen's.

Short keys – A = LmPK inh; B = AmpC detergent; C = AmpC inh no detg; D = HCMV antiviral; E = TbPYK inhibitor; F = AMA1-RON2 inh
1) FC(F)(F)c1cc(-c2ccco2)nc2ncnn12
  A: -2.4%; B: -11.2%; C: 1.9%; D: -30.1; E: -3.7%; F: 9.5%

2) Nc1c(SCCC(=O)O)ccc2c1C(=O)c1ccccc1C2=O
  A: -28.3%; B: 7.7%; C: -9.9%; D: -5.9; E: 0.5%; F: -18.5%

3) Cc1ccccc1NC(=O)Nc1ccccc1N1CCCCC1
  A: 1.3%; B: -4.8%; C: -24.3%; D: -34.0; E: -2.0%; F: -2.5%

4) CCc1ccc(Cn2nnc(C(=O)NCc3ccccc3OC)c2N)cc1
  A: -0.9%; B: 0.5%; C: -13.6%; D: 3.9; E: 0.3%; F: -1.6%

5) O=C(NC1CCS(=O)(=O)C1)c1c(NC(=O)C2COc3ccccc3O2)sc2c1CCCC2 (stereo not drawn)
  A: 2.8%; B: -12.3%; C: -30.1%; D: -13.0; E: -12.2%; F: 0.9%

6) O=c1c2cc(-c3ccccc3)sc2nc2n1N=C(c1cccs1)CS2
  A: -0.6%; B: 0.0%; C: -37.6%; D: 180.1; E: 5.7%; F: 45.1%[activator]

7) COc1cccc(CN(C)CC(=O)Nc2cccc(C(F)(F)F)c2)c1OC
  A: 1.2%; B: 0.5%; C: 71.4%[activator]; D: -30.7; E: 0.8%; F: -3.9%

8) Cc1nnnn1-c1cccc(C(=O)O)c1
  A: -4.5%; B: -11.1%; C: -8.3%; D: 14.4; E: 1.3%; F: 23.9%

9) O=C(NCc1cn(-c2ccccc2)nc1-c1ccccc1)c1cccc([N+](=O)[O-])c1
  A: 2.2%; B: -8.1%; C: -31.3%; D: 9.2; E: -12.5%; F: -17.9%

10) CN1CCN(C(=S)c2cn(Cc3ccccc3F)c3ccccc23)CC1
  A: 12.2%; B: -3.5%; C: 117.0%[activator]; D: 70.8; E: -1.3%; F: ?

11) CCOC(=O)CN1CC23C=CC(O2)C(C(=O)NC2CCCCC2)C3C1=O (stereo not drawn)
  A: 0.8%; B: ?; C: -8.2%; D: -6.4; E: -4.7%; F: 6.8%

12) COc1ccc(NC(=S)Nc2ccccc2)cn1
  A: -3.6%; B: -13.6%; C: -11.9%; D: -15.0; E: 4.0%; F: -9.7%[2.32 µM]

13) COC(=O)C1=C(C)N(C(C)c2ccccc2)C(=O)C1 (stereo not drawn)
  A: -1.4%; B: -12.8%; C: -24.0%; D: -14.3; E: -7.2%; F: 14.3%

14) C/C(=N\NC(=O)CCn1nc(C)cc1C)C(C)(C)C
  A: 3.9%; B: -3.6%; C: -10.7%; D: 48.3; E: 4.6%; F: 90.2%[activator]

15) Cc1ccccc1NC(=S)N(CCCN1CCOCC1)Cc1cccnc1
  A: -7.5%; B: 5.6%; C: -24.3%; D: ?; E: 4.7%; F: 23.6%

16) COc1ccc(CCN(C)C(=O)c2c(C)nn(CC(C)C)c2Cl)cc1OC
  A: -2.3%; B: 7.1%; C: -23.0%; D: 10.7; E: -8.0%; F: 61.7%[activator]

17) Cc1cccc(C(=O)OC2CCN(C)CC2)c1
  A: -3.1%; B: 1.5%; C: -10.4%; D: -10.5; E: -0.8%; F: -4.4%

18) CCc1ccc(N(CC(=O)NC(C)C)C(=O)CCC(=O)Nc2ccccn2)cc1
  A: -2.9%; B: 2.5%; C: 2.1%; D: -7.3; E: 0.5%; F: -2.0%

19) O=C(c1ccc(Br)cc1)c1cc(-c2ccccn2)c(N2CCOCC2)s1
  A: 3.9%; B: -3.6%; C: -28.1%; D: 54.6; E: 1.2%; F: 5.6%

20) Cc1cc(Cl)ccc1C(=O)C1CCCN(C(=O)c2cscn2)C1 (stereo not drawn)
  A: 3.2%; B: 4.5%; C: 11.3%; D: ?; E: -3.0%; F: -7.4%

21) CCOc1ccccc1CNC(=O)Cn1ccc2cc(S(=O)(=O)N3CCC(C)CC3)ccc21
  A: -2.5%; B: 2.2%; C: -43.3%; D: nt; E: -3.2%; F: -3.1%

22) Cc1ccc(-c2nc3[nH]c(=O)cc(NC(=O)C(C)C)n3n2)cc1
  A: -20.4%; B: 0.7%; C: -1.4%; D: -22.5; E: ?; F: 13.5%

23) Cc1ccc(S(=O)(=O)N(c2nc(NC(C)C)nc(NC(C)C)n2)n2cnnc2)cc1
  A: -1.8%; B: 1.6%; C: 42.2%; D: -39.1; E: 11.7%; F: 12.3%

24) O=S(=O)(Nc1ccc(S(=O)(=O)N2CCCCC2)cc1)c1cccs1
  A: 4.4%; B: 1.2%; C: -32.4%; D: 8.5; E: -8.3%; F: 20.2%

25) Cc1ccc(CC2CC(=O)N(c3ncccn3)C2=O)cc1 (stereo not drawn)
  A: -1.1%; B: -6.3%; C: -5.6%; D: 52.9; E: -2.0%; F: 0.7%

Among those listed so far, these contain fluorine:
Short keys – A = LmPK inh; B = AmpC detergent; C = AmpC inh no detg; D = HCMV antiviral; E = TbPYK inhibitor; F = AMA1-RON2 inh
1) FC(F)(F)c1cc(-c2ccco2)nc2ncnn12
  A: -2.4%; B: -11.2%; C: 1.9%; D: -30.1; E: -3.7%; F: 9.5%

7) COc1cccc(CN(C)CC(=O)Nc2cccc(C(F)(F)F)c2)c1OC
  A: 1.2%; B: 0.5%; C: 71.4%[activator]; D: -30.7; E: 0.8%; F: -3.9%

10) CN1CCN(C(=S)c2cn(Cc3ccccc3F)c3ccccc23)CC1
  A: 12.2%; B: -3.5%; C: 117.0%[activator]; D: 70.8; E: -1.3%; F: ?

Some entries already given, limited to LmPK inh.
nr | SMILES | LmPK inh
20 | Cc1cc(Cl)ccc1C(=O)C1CCCN(C(=O)c2cscn2)C1 (stereo not drawn) | 3.2%
15 | Cc1ccccc1NC(=S)N(CCCN1CCOCC1)Cc1cccnc1 | -7.5%
23 | Cc1ccc(S(=O)(=O)N(c2nc(NC(C)C)nc(NC(C)C)n2)n2cnnc2)cc1 | -1.8%
2 | Nc1c(SCCC(=O)O)ccc2c1C(=O)c1ccccc1C2=O | -28.3%

The listing picks up; the 3 compounds before the break are reprinted first.
Short keys – A = LmPK inh; B = AmpC detergent; C = AmpC inh no detg; D = HCMV antiviral; E = TbPYK inhibitor; F = AMA1-RON2 inh
23) Cc1ccc(S(=O)(=O)N(c2nc(NC(C)C)nc(NC(C)C)n2)n2cnnc2)cc1
  A: -1.8%; B: 1.6%; C: 42.2%; D: -39.1; E: 11.7%; F: 12.3%

24) O=S(=O)(Nc1ccc(S(=O)(=O)N2CCCCC2)cc1)c1cccs1
  A: 4.4%; B: 1.2%; C: -32.4%; D: 8.5; E: -8.3%; F: 20.2%

25) Cc1ccc(CC2CC(=O)N(c3ncccn3)C2=O)cc1 (stereo not drawn)
  A: -1.1%; B: -6.3%; C: -5.6%; D: 52.9; E: -2.0%; F: 0.7%

26) CCc1nc2ccc(C(=O)N3CCN(c4cc(C)ccc4C)CC3)cc2nc1CC
  A: 0.6%; B: -5.2%&-1.9%; C: 164.7%[activator]; D: -33.4&-27.7; E: 4.5%&0.1%; F: -16.2%

27) CSc1ccc(S(=O)(=O)N2CCC(C(=O)Nc3ccc(NC(C)=O)cc3)CC2)cc1
  A: 5.3%; B: -4.1%; C: -17.3%; D: 17.2; E: -0.5%; F: -1.0%

28) CC(C)CCN1CCN=C1N(C)C
  A: nt; B: -14.8%; C: -12.6%; D: 3.2; E: 8.9%; F: 0.5%

29) O=C(CCN1CCN(c2ccccc2)CC1)c1ccc(Cl)cc1
  A: 2.8%; B: -14.3%; C: -2.0%; D: ?; E: 5.7%; F: -5.7%

30) CCC(=O)N1CCc2cc(S(=O)(=O)NCCC(=O)N3CCN(c4cccc(C)c4)C(C)C3)ccc21 (stereo not drawn)
  A: 8.4%; B: 4.7%; C: 151.7%[activator]; D: -38.4; E: -0.1%; F: -0.2%

As entered above.
compound 3 @ LmPK inh = 1.3%
compound 23 @ HCMV antiviral = -39.1
compound 15 @ AMA1-RON2 inh = 23.6%
compound 13 @ HCMV antiviral = -14.3

High-throughput results: PubChem BioAssay, National Center for Advancing Translational Sciences (NCATS)
